Bioassay records as filed in PubChem.
D2 PAM: Beta-Arrestin HTS for Positive Allosteric Modulators of the Human D2 Dopamine Receptor: Potentiators; D(2) dopamine receptor (Homo sapiens), P14416; DiscoveRx D2 beta-arrestin cells, luminescence, 90 min; 100% = 57 uM dopamine signal; potentiation, % (concentration not given with the values); 360,000 compounds, 0.23% hits; AID 624464, 2012; active = potentiation of 50% or more; inconclusive = 30% to 50%; inactive = 30% or less;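 further: tested on top of an EC20 dose of dopamine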
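PathHunter beta-arrestin assay in DiscoveRx D2 cells. Compounds were added with an EC20 of dopamine (50 nM final) for 90 min at 37 deg C. Luminescence was read 1 h after detection reagent, with 57 uM dopamine as the EC100 control.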
PINK1 modulator: A Quantitative High throughput Screen to Identify Chemical Modulators of PINK1 Expression; 410,000 compounds, 0.2% hits; AID 624263, 2012; Potency, µM (doses to about 76.6 µM), without a hit: at the highest dose activation (PINK1 increase), most hits filed as activators; PINK1 immunofluorescence, high-content cytometry, 24 h; active = well fitted activation curve with a large enough effect; inconclusive = small, poorly fitted or top-dose-only effect; inactive = flat fitted curve, though single readings scatter; cell line not stated here;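 further: potency means the concentration at half of the fitted maximal effect; % of control where 0% means no effect; nearly all actives have a fitted effect of over 65% in size; a mitochondrial uncoupler was the plate control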
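Readout is PINK1 immunofluorescence, quantified alongside mitochondrial, cell and nuclear markers by laser-scanning microplate cytometry. Cells from a stable line were exposed to compound titrations (5 concentrations) for 24 hours, with CCCP controls.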
Sfp inh: qHTS Assay for Inhibitors of Bacillus subtilis Sfp phosphopantetheinyl transferase (PPTase) | Potency, µM, inactives show max response, negative = inhibition, actives largely listed as inhibitors | 310,000 compounds, 3.5% hits | Biochemical Sfp PPTase activity, qHTS | 4'-phosphopantetheinyl transferase ffp (Bacillus subtilis), Q9F4F7; active means well fitted inhibition curve with a large enough effect; inconclusive means small, poorly fitted or top-dose-only effect, or another doubt; inactive means no such curve, though single readings can be large or run the other way;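 further: the enzyme is Sfp with the accession as filed and its product quenches rhodamine fluorescence; potency means the concentration at half of the fitted maximal effect; 0% = enzyme reaction without inhibitor and -100% = no enzyme wells; top concentration of the series not given in the record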
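Fluorescence-quenching assay with 15 nM Sfp, 5 uM rhodamine-CoA and 12.5 uM BHQ-2-labelled ybbR peptide in pH 7.6 Hepes/MgCl2 buffer. Enzyme was pre-incubated with compound for 15 min at room temperature. Rate was taken from the 30-min fluorescence change (525/598 nm).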
TRPV1 PAM: HTS Assay for Compounds that Act as Potentiators of the Vanilloid Receptor 1 | AID 540277, 2011 | Transient receptor potential cation channel subfamily V member 1 (Homo sapiens), Q8NER1 | potentiation, % at 8.33 µM | TRPV1-expressing cells, Fluo-8 calcium influx, capsaicin EC20 potentiation; host cell line not named in the record; control for the full effect not named in the record | 320,000 compounds, 0.02% hits; active means potentiation above 80%; inconclusive means 30% to 80%; inactive means below 30%; further: 0% is about no effect
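Cells expressing TRPV1 were dye-loaded with Fluo-8 and read kinetically: 10 s baseline, 3 min after compound (agonist portion), then 2 min after EC20 capsaicin (allosteric enhancer portion). Calcium-bound dye fluorescence at 480/520 nm.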
CtBP-E1A inh: qHTS Assay for Inhibitors of the CtBP/E1A Interaction; AlphaScreen GST-E1A/His-CtBP binding, 1536-well; hits give low values; control for the full effect not named in the record; CtBP / adenovirus E1A interaction (AlphaScreen); 340,000 compounds, 0.49% hits; AID 651724, 2012; activity change, % (concentration not given with the values); in the data active means activity change below about -65%; inconclusive means about -30% to -65%; inactive means above about -30%; further: on the % scale 0 is the no-effect control and ±100 the full control effect
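GST-E1A and His-tagged CtBP (125 nM each as 5X stock) were preincubated with pin-transferred compound for 2 h at 37 °C in the dark, then glutathione donor and nickel acceptor beads were added for 1 h before AlphaScreen reading.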
Six1-Eya2 blk: qHTS Assay for Inhibitors of the Six1/Eya2 Interaction; Homeobox protein SIX1 (Homo sapiens) + Protein phosphatase EYA2 (Homo sapiens), …; AlphaScreen GST-Six1/His-Eya2 binding, biochemical; hits give low values; control for the full effect not named in the record; activity change, % (concentration not given with the values); 360,000 compounds, 0.56% hits; in the data active = activity change below about -65%; inconclusive = about -30% to -65%; inactive = above about -30%; further: on the % scale 0 is the no-effect control and ±100 the full control effect
Target sequence (O00167 whole entry, looked up): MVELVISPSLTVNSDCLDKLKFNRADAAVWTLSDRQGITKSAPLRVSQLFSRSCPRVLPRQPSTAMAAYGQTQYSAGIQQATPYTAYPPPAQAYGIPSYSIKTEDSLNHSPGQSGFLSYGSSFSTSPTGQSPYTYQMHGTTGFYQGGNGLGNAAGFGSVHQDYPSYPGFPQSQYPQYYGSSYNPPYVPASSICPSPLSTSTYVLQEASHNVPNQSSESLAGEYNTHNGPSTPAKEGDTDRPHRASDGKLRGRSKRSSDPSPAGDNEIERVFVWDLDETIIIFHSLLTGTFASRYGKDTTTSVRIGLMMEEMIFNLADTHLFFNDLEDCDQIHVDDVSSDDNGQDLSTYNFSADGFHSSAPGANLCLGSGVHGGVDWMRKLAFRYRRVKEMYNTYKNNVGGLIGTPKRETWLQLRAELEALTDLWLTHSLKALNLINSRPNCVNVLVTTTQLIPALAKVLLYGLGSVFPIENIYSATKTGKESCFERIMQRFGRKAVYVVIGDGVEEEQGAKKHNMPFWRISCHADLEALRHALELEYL
Target sequence (Q15475 whole entry, looked up): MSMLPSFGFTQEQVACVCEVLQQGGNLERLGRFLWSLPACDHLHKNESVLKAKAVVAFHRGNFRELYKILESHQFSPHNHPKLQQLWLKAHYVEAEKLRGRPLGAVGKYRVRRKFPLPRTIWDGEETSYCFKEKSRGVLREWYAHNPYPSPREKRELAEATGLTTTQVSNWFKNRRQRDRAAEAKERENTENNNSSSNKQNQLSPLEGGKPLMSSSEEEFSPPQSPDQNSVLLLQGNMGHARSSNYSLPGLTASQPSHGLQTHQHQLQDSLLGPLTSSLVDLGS
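AlphaScreen luminescence read after one hour at 37 °C in darkness. Pin-transferred compounds met GST-Six1 and His-Eya2 protein (5X stock 250 nM/500 nM) plus glutathione donor and Ni-chelate acceptor beads (5X, 50 ug/mL).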
D2 agonist: Beta-Arrestin HTS for Positive Allosteric Modulators of the Human D2 Dopamine Receptor: Agonists | D(2) dopamine receptor (Homo sapiens), P14416 | DiscoveRx PathHunter D2 beta-arrestin, luminescence, 90 min; 100% = 57 uM dopamine signal | activation, % (no concentration beside the values) | 360,000 compounds, 0.084% hits; in the data active = activation above about 40%; inconclusive = about 15% to 40%; inactive = below about 15%; further: compound concentration not given in the record; the text of the record calls up to 30% inactive
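DiscoveRx PathHunter D2 beta-arrestin cells (2,100/well) attached overnight, then compound-stimulated 90 min at 37 C in HBSS/10 mM HEPES/0.1% Tween-20 buffer; beta-galactosidase complementation read by luminescence after 1 h at ambient temperature. Dopamine 57 uM final (EC100) as control.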
* = called active by the depositor; ? = inconclusive; nt = no result given; [ ] = dose if it differs, or a comment. This is a random part of the collection. Share with any hit: about 3.7%.

SMILES	D2 PAM	PINK1 modulator	Sfp inh	TRPV1 PAM	CtBP-E1A inh	Six1-Eya2 blk	D2 agonist
CC(=O)c1ccc(C(=O)N2CCCC(C(=O)c3ccc(Cl)cc3)C2)s1 (centres undefined)	-5.3	3.3%	2.7%	-2.9	-0.8	-3.5	0.7
Cc1ccccc1Cn1cc(NC(=O)COc2ccccc2)cn1	1.1	-2.0%	-2.8%	9.0	-1.2	-10.3	-4.8
COC(=O)c1cccc(-n2[nH]nnc2=S)c1	-0.8	-2.6%	15.8µM*	-16.1	1.7	0.4	-2.5
Cc1cccc(Nc2nnc(SCC(=O)NC(=O)Nc3ccc4c(c3)OCCO4)s2)c1	-11.4	-2.5%	-24.5%	1.2	9.1	3.5	-0.5
Cc1cccc(C)c1NC(=O)NC1CCc2ccccc21 (centres undefined)	-3.8	-2.2%	9.0%	1.9	3.5	2.4	0.1
O=[N+]([O-])c1ccc(OCC(O)CN(C2CCCCC2)C2CCCCC2)cc1 (centres undefined)	-3.6	-0.7%	22.1%	-7.6	2.1	4.2	-0.8
C#CCN1C=C(C(=O)OCC)C(C)NS1(=O)=O (centres undefined)	nt	0.2%	nt	nt	2.5	4.0	0.6
COc1ccc(CC(=O)Oc2ccc(F)cc2)cc1	-1.5	3.4%	1.9%	-21.7	22.4	27.6	-1.3
CC(OC(=O)c1ccc(Cl)nc1)C(=O)Nc1ccc2c(c1)OCO2 (centres undefined)	0.8	0.3%	nt	7.5	nt	-2.0	-0.9
COc1ccc(CN2C(=O)c3c(c(C)n(C)c3C)C2C(=O)NC2CCC(C)CC2)cc1 (centres undefined)	-8.6	-1.4%	2.7%	-4.9	-3.1	-2.2	-3.6
CC(=O)c1sc(NC(=O)CCS(=O)(=O)c2ccc(F)cc2)nc1C	-19.5	7.1%	nt	nt	-7.4	9.8	-0.3
O=C(NCC(c1ccco1)N1CCOCC1)c1ccc(C(F)(F)F)cc1 (centres undefined)	-16.1	2.8%	nt	-8.0	-2.8	1.0	-1.9
CCc1nc2ccc(C(=O)N(C)Cc3ccco3)cn2c1N(C)C(=O)Cc1ccccc1	0.2	0.5%	nt	nt	0.7	7.5	-2.7
CC(C)c1nc(=S)n(-c2ccccc2)[nH]1	-11.1	1.3%	6.4%	5.1	3.4	2.0	-0.9
COc1ccc(OCCCC(=O)OCC(=O)Nc2nnc(-c3ccccc3)o2)cc1	-2.6	-0.7%	nt	14.2	-12.0	-10.1	3.3
Cc1nc([N+](=O)[O-])cn1CC(=O)Nc1ccc(Cl)cc1	-1.7	1.4%	16.2%	11.2	5.2	10.8	-1.2
CC(=O)c1cc(CN2CCC(n3nccc3NC(=O)c3ccccc3)CC2)cs1	-12.1	-0.6%	7.2%	2.1	7.7	-1.5	-1.2
CN(C)C(=O)COc1ncnc2scc(-c3ccc(F)cc3)c12	-0.6	-0.4%	17.1%	-15.2	-3.9	1.6	-2.0
Cc1nc(SCC(=O)Nc2ccccc2Cl)oc1C	4.5	0.8%	6.3%	-1.0	1.1	-0.2	-1.1
Cc1cc(S(=O)(=O)NCC(c2ccc(F)cc2)N2CCN(C)CC2)ccc1F (centres undefined)	-5.4	-1.1%	nt	-8.5	-2.0	5.8	-5.3
Nc1c(-c2ccccc2)sc2ccc3ccccc3[n+]12	-14.2	-0.3%	35.5µM*	12.2	nt	-12.9	-2.5
CCOC(=O)C(Oc1ccc2c(-c3ccc(OC)cc3)cc(=O)oc2c1C)c1ccccc1 (centres undefined)	-11.8	17.5%[38.3 µM]	4.0%	18.7	7.6	1.4	-3.6
COC(=O)c1ccc2nc(-c3ccc(C)cc3)c(Cc3ccsc3)n2c1	-4.5	1.6%	nt	nt	12.8	2.9	-5.7
O=S(=O)(Nc1ncccn1)c1ccccc1	-11.7	3.7%	6.6%	11.3	2.7	-8.5	4.8
COc1cc(-c2cc(-c3ccc(O)cc3)nc(N)c2C#N)ccc1O	0.0	0.1%	5.7%	3.6	-27.5	?	2.1

Other records follow.
SMILES	D2 PAM	PINK1 modulator	Sfp inh	TRPV1 PAM	CtBP-E1A inh	Six1-Eya2 blk	D2 agonist
O=C(O)c1cc2ncc(-c3[nH]ncc3[N+](=O)[O-])cn2n1	-6.9	4.0%	10.0%	6.4	-19.9	-20.8	-0.1
c1ccc2c(Nc3nncs3)c3ccccc3nc2c1	-5.1	6.8%	-4.0%	-2.1	1.4	10.9	-2.1
COc1cc(CN2CCc3ccc(NC(=O)CCc4ccccc4OC)cc3C2)ccc1O	-31.7	0.7%	-3.8%	-12.5	-15.5	-5.3	-2.1
CCOc1ccc(CCNC(=O)c2cc([N+](=O)[O-])ccc2N2CCOCC2)cc1OCC	-7.2	0.2%	10.8%	-1.7	0.0	3.5	0.7
COc1ccc(C=O)c(OCc2cn(CC(=O)c3ccc(O)cc3)nn2)c1	-18.7	2.2%	nt	nt	-1.2	-2.3	-7.2
CCC(C)C(NC(=O)c1ccc(Cl)cc1Cl)C(=O)O (centres undefined)	21.8	-1.4%	8.0%	-6.2	2.2	3.7	-1.6
O=C(CCc1n[nH]c(=O)[nH]c1=O)N/N=C/c1ccc(Br)o1	-10.4	0.3%	9.4%	5.2	nt	10.9	1.7
CCOC(=O)N1CCC(N2C(=O)c3ccccc3C2Nc2ccc(S(=O)(=O)N3CCOCC3)cc2)CC1 (centres undefined)	8.3	0.2%	14.9%	-0.1	nt	0.1	-5.5
O=C(CSc1nc2ccc(Cl)cc2[nH]1)NCCc1ccccc1	-13.3	?	26.0%	6.3	-13.8	4.2	-1.2
O=C(CN1CCN(CC(=O)Nc2ccccc2F)CC1)Nc1ccc2c(c1)OCCO2	-7.5	-1.3%	23.6%	-4.9	nt	-1.0	2.7
CCc1ccc2oc(-c3cc(N)cc(C)c3O)nc2c1	0.1	5.9%	0.0%	2.7	-23.0	0.0	4.6
COc1ccccc1C(=O)OCn1nnc2ccccc2c1=O	-5.1	1.9%	10.1%	6.9	-4.2	0.2	-1.5
O=C(COc1ccccc1F)N1CCN(S(=O)(=O)/C=C/c2ccccc2)CC1	22.4	-3.2%	?	-5.9	0.4	1.8	1.7
C=CCNc1nc2cc(-c3cccc(Cl)c3)sc2c(=O)n1C	-5.3	8.9%	nt	nt	4.2	2.6	-5.0
O=C(NCC1CCN(c2ccc(S(=O)(=O)N3CCOCC3)cc2)CC1)c1cccc(Cl)c1	-19.7	6.1%[38.3 µM]	-5.9%	1.5	-1.4	0.2	2.3
CCNc1ccc(C(=O)O)cc1N	18.8	3.3%	-5.2%	16.6	10.9	-3.4	1.9
CCCc1nc(SCC(=O)N2CCCC2)c2ccccc2n1	3.3	-2.4%	-28.0%	0.1	6.5	5.3	-1.5
O=C(Nc1ccc2c(c1)oc1ccccc12)C1CC1	-1.9	9.4%	9.3%	-5.6	1.3	5.6	2.7
CN(Cc1cccnc1)C(=O)CC1C(=O)NCCN1Cc1ccc(-c2ccccc2)cc1 (centres undefined)	1.5	0.2%	-9.0%	17.5	8.3	11.3	-2.5
CCCc1cc(C(=O)NC2CCCN(Cc3ccccc3F)C2)no1 (centres undefined)	-11.9	-1.0%	7.3%	-12.3	5.9	-1.3	-2.5
COc1ccc(-n2nnnc2SCC(=O)NCc2cccs2)cc1	-2.8	1.3%	1.0%	0.0	5.1	4.8	-1.6
COc1ccccc1NS(=O)(=O)c1cccc(C(=O)N2CC(C)OC(C)C2)c1 (centres undefined)	-11.9	-0.6%	nt	1.2	2.9	0.0	-3.1
COc1ccc(S(=O)(=O)N2CCN(c3ccc(F)cc3)CC2)cc1C(=O)N1CCCC1	-8.0	-0.1%	0.1%	26.9	14.5	-13.3	-1.8
COc1ccc(NS(=O)(=O)c2ccc(Cl)c(C(=O)O)c2)cc1S(=O)(=O)N1CCCCC1	-9.9	-1.0%	-8.2%	-5.6	nt	-1.6	2.0
COC(=O)CSc1nccc(-c2ccc(F)cc2)c1C#N	-2.6	1.0%	-11.8%	29.2	25.0	24.6	-1.1
O=Cc1cnc2ccccc2c1-c1ccccc1	-4.8	3.3%	8.8%	?	5.6	14.0	-1.5
CCn1c(=NC(=O)CSC(C)=O)sc2ccccc21	-13.9	13.9%	-2.9%	1.9	15.4	3.7	-6.4
CCOc1ccc(-n2c(C)cc(/C=N/Nc3nc(C)cc(=O)[nH]3)c2C)cc1	0.0	9.1%	6.8%	1.9	-5.8	-10.8	-2.9
Cc1cccc(Nc2c(O)nc[nH]c2=O)c1	1.6	0.9%	nt	nt	-0.1	1.5	-1.0
O=C(CSc1nc(-c2ccccc2Cl)ns1)NCc1ccc2c(c1)OCO2	-21.8	5.8%	2.1%	3.1	-5.5	-3.5	-0.7

Looked up by structure from the list above, 6 records:
SMILES	D2 PAM	PINK1 modulator	Sfp inh	TRPV1 PAM	CtBP-E1A inh	Six1-Eya2 blk	D2 agonist
CCc1ccc2oc(-c3cc(N)cc(C)c3O)nc2c1	0.1	5.9%	0.0%	2.7	-23.0	0.0	4.6
COc1cc(CN2CCc3ccc(NC(=O)CCc4ccccc4OC)cc3C2)ccc1O	-31.7	0.7%	-3.8%	-12.5	-15.5	-5.3	-2.1
COC(=O)CSc1nccc(-c2ccc(F)cc2)c1C#N	-2.6	1.0%	-11.8%	29.2	25.0	24.6	-1.1
CCC(C)C(NC(=O)c1ccc(Cl)cc1Cl)C(=O)O (centres undefined)	21.8	-1.4%	8.0%	-6.2	2.2	3.7	-1.6
COc1ccc(S(=O)(=O)N2CCN(c3ccc(F)cc3)CC2)cc1C(=O)N1CCCC1	-8.0	-0.1%	0.1%	26.9	14.5	-13.3	-1.8
O=C(Nc1ccc2c(c1)oc1ccccc12)C1CC1	-1.9	9.4%	9.3%	-5.6	1.3	5.6	2.7
